# Screening results from PubChem BioAssay.
# TRPML1 blocker = human mucolipin-1 channel inhibition | Q9GZU1 | TRPML1-inducible cells, Ca2+ dye fluorescence, FDSS; stronger effect = lower value; inhibition of EC80 agonist-evoked calcium signal | activity change, negative = inhibition, % (no concentration beside the values) | hit rate 0.02% among 390,000 | AID 624415; in the data active means activity change below about -50%; inconclusive means about -30% to -50%; inactive means above about -30%;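 further: stimulus is agonist 54-4 at its EC80 concentration; on the % scale 0 is the no-effect control and ±100 the full control effect; compound concentration not given in the record; the text of the record puts the active cut at -80%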
# Target sequence (Q9GZU1 whole entry, looked up): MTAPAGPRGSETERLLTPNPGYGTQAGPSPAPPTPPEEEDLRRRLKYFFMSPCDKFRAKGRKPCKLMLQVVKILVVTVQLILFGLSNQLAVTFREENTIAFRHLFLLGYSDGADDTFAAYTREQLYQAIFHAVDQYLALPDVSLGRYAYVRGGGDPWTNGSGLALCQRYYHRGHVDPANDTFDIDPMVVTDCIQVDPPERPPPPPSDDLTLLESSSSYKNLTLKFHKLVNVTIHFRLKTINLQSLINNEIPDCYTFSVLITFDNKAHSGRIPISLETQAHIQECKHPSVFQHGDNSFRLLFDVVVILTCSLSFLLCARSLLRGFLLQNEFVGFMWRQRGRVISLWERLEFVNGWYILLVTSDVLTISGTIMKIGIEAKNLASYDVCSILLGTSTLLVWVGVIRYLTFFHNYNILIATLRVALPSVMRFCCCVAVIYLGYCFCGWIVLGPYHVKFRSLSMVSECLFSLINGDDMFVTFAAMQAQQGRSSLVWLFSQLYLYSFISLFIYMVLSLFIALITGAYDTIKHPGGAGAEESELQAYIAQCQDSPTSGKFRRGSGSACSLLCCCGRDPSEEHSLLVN
#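 Calcium fluorescence in TRPML1-DL cells induced overnight with Tet: a 110 s read after compound pin addition, then a 110 s antagonist read after challenge with 54-4 at 4 uM final (EC80).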
# Menin MLL FP FL = inhibitors of human menin-MLL interaction, wild-type MLL peptide. AID 1766. 290,000 tested, under 10 active. Fluorescence polarization, fluorescein-MLL peptide displacement from menin. FP activity change, % at 61.4 µM; inconclusive = falling polarisation curve, or a change in total fluorescence; inactive = total fluorescence flat and polarisation flat or rising; no compound was filed as active; the % refers to the polarisation; negative = inhibition;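 further: % of control where 0% means no effect; inhibitors lower the polarisation; unlabelled MLL peptide was the positive control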
# ClpP mod = qHTS Assay for Activators of ClpP; ATP-dependent Clp protease proteolytic subunit (Bacillus subtilis (strain 168)), P80244; purified B. subtilis ClpP, FRET peptide cleavage, 20 min; Potency, µM (series often up to 57.5 µM), inactives show at the highest dose activity change, negative = active; hit rate 1.9% among 340,000; active = well fitted falling curve with a large enough effect; inconclusive = small, poorly fitted or top-dose-only effect; inactive = no such curve, though single readings can be large or run the other way; further: potency means the concentration at half of the fitted maximal effect; the source files actives as falling curves though it sought activators and does not explain the sign; nearly all actives have a fitted effect of over 65% in size; many hits overshoot -100%
# Target sequence (P80244 whole entry, looked up): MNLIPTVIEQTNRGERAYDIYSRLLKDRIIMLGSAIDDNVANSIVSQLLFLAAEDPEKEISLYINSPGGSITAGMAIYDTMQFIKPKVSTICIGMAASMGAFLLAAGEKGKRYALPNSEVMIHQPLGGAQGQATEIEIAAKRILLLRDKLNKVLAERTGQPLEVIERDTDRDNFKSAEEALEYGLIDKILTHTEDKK
#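 FRET quenching reversal measured ClpP activation: 10 microg/mL B. subtilis ClpP at pH 8 with the FRET-FV decapeptide, read at 430 nm after 320 nm excitation. The 20-min minus 0-min signal was scaled between DMSO/no-enzyme wells and ADEP (5.8 microM final).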
# gsp ag = activates gsp, the McCune-Albright syndrome mutation; gsp mutant cells, cAMP HTRF, 30 min; control for the full effect not named in the record; AID 624287; Potency, µM (series often up to 76.9 µM), without a hit: at the top dose activation (cAMP increase), usual class: activators; hit rate 0.13% among 340,000; active = well fitted activation curve with a large enough effect; inconclusive = small, poorly fitted or top-dose-only effect, or another doubt; inactive = no such curve, though single readings can be large or run the other way; cell line not stated here;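 further: phosphodiesterase inhibitor Ro 20-1724 added with compounds to block cAMP breakdown; potency means the concentration at half of the fitted maximal effect; nearly all actives have a fitted effect of over 60% in size; about a fifth of the inactives were tested at one dose only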
#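 Cells stably selected in G418 were plated at 2000/well, grown 16-24 hr, then given compounds in DMSO with the PDE inhibitor […] (300 uM solution added) for 30 min at 37C; cAMP was read by HTRF.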
# gsp antag = antagonizes gsp, the McCune-Albright syndrome mutation | gsp-mutant cells, cAMP HTRF, 30 min; control for the full effect not named in the record | Potency, µM (series often up to 76.9 µM), for inactives: top-dose activity change, negative = inhibition, actives largely listed as inhibitors | hit rate 0.4% among 340,000; active = falling curve of any shape with a large fitted effect; inconclusive = falling curve, mostly with a smaller effect; inactive = flat or rising curve; cell line not stated here;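 further: intracellular cAMP measured with PDE inhibitor Ro 20-1724 present during compound exposure; potency means the concentration at half of the fitted maximal effect; on the % scale 0 is the no-effect control and ±100 the full control effect; nearly all actives have a fitted effect of over 65% in size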
#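 HTRF cAMP read-out (cAMP-d2 plus anti-cAMP antibody-K in lysis buffer, 30 min RT). Before lysis, cells are exposed to compounds with […] for 30 min at 37C in DPBS containing Ca/Mg, BSA and Tween 20.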
# TRPML1 ag = human mucolipin-1 channel agonism; activation, % (no concentration beside the values); hit rate 0.12% among 410,000; TRPML1-expressing cells, Ca2+ dye fluorescence, FDSS; host cell line not named in the record; reference of the full effect not given here; in the data active = activation above about 50%; inconclusive = about 30% to 50%; inactive = below about 30%; further: 0% is about no effect; the text of the record puts the active cut at 80%
#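 Tetracycline-induced TRPML1-DL cells are seeded and incubated overnight before loading with a no-wash Ca2+ dye and quencher. Agonist activity is taken from the 110 s fluorescence read following compound pin-transfer on an FDSS, before EC80 54-4 challenge.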
# * marks the source's active call; other numbers are inactive results; ? = inconclusive; nt = not tested or not shown; & = joins results of further samples; [ ] = dose if it differs, or a comment. Rows were taken by chance; any-hit rate near 2.1%.
# Second line of a record – TRPML1 blocker	Menin MLL FP FL	ClpP mod	gsp ag	gsp antag	TRPML1 ag
COC(=O)c1c(C)[nH]c(C(=O)OC(C)C(=O)N2CCOCC2)c1C (stereo not drawn)
  -1	nt	1.3%	21%[15.4 µM]	7%	0.5
CC(C(=O)O)n1cc(C#N)c(=O)[nH]c1=O (stereo not drawn)
  -2	nt	nt	10%	18%	-0.5
COc1ccc(C(=O)Cn2c(C(=O)/C=C/c3ccccc3)nc3ccccc32)cc1
  11	-2.4	7.7%	-3%	22%	3.2
COc1ccc(CCNC(=O)Cn2c(=O)nc(-c3ccccc3F)c3cc(Cl)ccc32)cc1OC
  -27	nt	-3.8%	nt	nt	1.0
CCCn1c(SC(C)C(=O)NCC2CCCO2)nc2sc(CC)cc2c1=O (stereo not drawn)
  0	nt	-2.9%	1%	-8%	0.2
CCc1ccc(N(CC)C(=O)c2cn(C)c(=O)c3ccccc23)cc1
  -7	-0.2	0.1%	0%[15.4 µM]	10%	-1.5
COc1cc(C=O)ccc1OCC(=O)Nc1cccc(S(=O)(=O)N(C)c2ccccc2)c1
  -5	nt	-0.5%	4%	?	1.6
CCOc1c(Br)cc(CNc2ncn[nH]2)cc1OC
  9	-1.5	-0.8%	-38%[inhibitor]	4%	0.8
CC1CCC2C(=O)N(c3ccc(C(=O)Oc4cccc5cccnc45)cc3)C(=O)C2C1 (stereo not drawn)
  9	1.1	1.2%	-27%[15.4 µM]	-23%	-1.1
COc1cccc(-n2c(SCC(=O)NC3CCS(=O)(=O)C3)nc3ccccc3c2=O)c1 (stereo not drawn)
  2	nt	0.4%	-11%	7%	-0.5
CC(=O)c1ccc(OC(=O)/C=C/c2ccccc2)cc1
  nt	2.6	1.0%	-1%	3%	nt
Cn1c(SCC(=O)Nc2sccc2C#N)nnc1-c1ccccc1
  6	9.4	-3.8%	-29%	-5%	1.2
Cc1ccc(NC(=O)NCc2ccccn2)cc1
  2	-0.1	nt	?	6%	0.0
Cc1ccccc1-n1ncc2c1CC(C)(C)CC2NC(=O)C1CCC1 (stereo not drawn)
  10	nt	-1.0%	8%	-1%	-0.4
C=CCn1c(SC)nc2sc3c(c2c1=O)CCc1ccccc1-3
  6	nt	-10%	16%	-13%	1.0
c1coc(CNc2nc3sc4c(c3c3ncnn23)CCCC4)c1
  55	-1.6	-2.3%	18%	-6%	0.2
CN1CCN(C(=S)NC(=O)c2ccc(Cl)cc2)CC1
  8	3.0	nt	-36%[inhibitor]	0%	-0.3
COC(=O)c1ccc(COc2ccc(NC(C)=O)cc2)o1
  -4	-1.4	-1.6%	-7%[15.4 µM]	12%	0.0
COc1cccc(OCc2cc(C(=O)N(C)CCOc3ccc(C)cc3)no2)c1
  -11	nt	-3.1%	-35%[inhibitor]	-9%	2.3
O=C(CCn1cccn1)Nc1ccc2c(c1)OCO2
  10	-1.7	0.0%	-1%	-2%	0.3
COc1ccc(S(=O)(=O)N2CCC(C(=O)c3ccc4c(c3)OCCO4)CC2)cc1
  8	0.1	-5.2%	?	-18%	2.7
CC(=O)Nc1ccc(C(=O)NC2CCCC2)cc1
  17	0.0	-3.2%	-41%[inhibitor]	6%	-0.2
COc1ccc(C2C(C(=O)c3ccco3)=C(O)C(=O)N2CCc2ccccc2)cc1OC (stereo not drawn)
  8	3.1	-2.7%	-21%	-15%	-0.6
Cc1cc(O)c(C(c2cccc(Cl)c2)N2CCN(c3ccccc3)CC2)c(=O)n1Cc1ccco1 (stereo not drawn)
  3	nt	-1.7%	nt	nt	0.1
Cc1ccc(N2CC(C(=O)Nc3nnc(SCC(N)=O)s3)CC2=O)cc1 (stereo not drawn)
  6	0.7	-0.4%	-97%[inhibitor]	15%	0.0
COc1ccc(N2CCN(C(CNC(=O)C3CCCCC3)c3cccnc3)CC2)cc1 (stereo not drawn)
  6	-1.8	-4.1%	-2%	1%	-0.5
COC/C=C/C1=CC2=CC(=O)C(C)(OC(=O)c3cnc4ccccc4n3)C(=O)C2=CN1C(CO)CO (stereo not drawn)
  15	-5.6[11.7 µM]	-1.3%	nt	-11%	0.0
C#CCNC(=O)C1=C[C@H](c2cn(C(C)=O)c3ccccc23)[C@@H](CCCO)[C@H](OCC)O1
  -10	5.8	-0.8%	nt	-2%	0.5
CSc1nc2ccccc2c(=O)n1C1CCOC(C)(C)C1 (stereo not drawn)
  -11	-4.0	0.0%	-23%	-21%	2.1
Fc1ccc(-[n+]2nc(Nc3ccccc3)sc2-c2cccc(Cl)c2Cl)cc1
  -1	-7.9	-0.9%	nt	?	-0.6
CCC(C)N(C(=O)CCC(=O)Nc1cc(C)on1)C(C(=O)NC(C)(C)C)c1ccccc1Cl (stereo not drawn)
  12	-0.3	-0.4%	11%[15.4 µM]	2%	-1.6
CCOc1ccc(OCC)c(NC(=O)C2CCN(c3nnc(-n4cccc4)s3)CC2)c1
  -17	nt	0.2%	nt	nt	3.1
CC(=O)Nc1ccc(Oc2cc(C#N)c(C#N)cc2N2CCOCC2)cc1
  8	1.4	-7.0%	1%	-6%	-0.3
CN1C(=O)CSc2ccc(C(=O)O)cc21
  -8	1.6	0.6%	-25%	-2%	0.1
CCN(C(=O)COC(=O)c1cc(S(=O)(=O)N2CCc3ccccc32)ccc1OC)C1CCS(=O)(=O)C1 (stereo not drawn)
  3	-0.3	nt	9%[15.4 µM]	1%	0.1
CCCCCCC(=O)N=Nc1c(O)[nH]c2ccc([N+](=O)[O-])cc12
  2	9.9	-1.2%	2%	5%	-1.4
COc1cccc(OCCCCCCN2CCOCC2)c1
  34	4.7	-1.0%	-15%	8%	0.0
CCCS(=O)(=O)N1CCC(C(=O)NCCCOC)CC1
  10	-0.2	-0.4%	1%	-1%	-1.1
CCc1ccc(OCC(=O)N/N=C/c2cc([N+](=O)[O-])ccc2N2CCCCCC2)cc1
  17	7.6	0.6%	-10%[15.4 µM]	3%	-0.3
CC1CCCN(CCOCCSc2ccccc2)C1 (stereo not drawn)
  -2	-0.5	-2.0%	-22%	10%	-0.3
CCn1cnc2scc(-c3ccc(OC)cc3)c2c1=O
  -11	4.7	-14%	?	-8%	0.2
Cn1c(CN2CCCCC2)nc2cc(NC(=O)c3cccc(Br)c3)ccc21
  -4&-8	3.9	-3.8%&-3.6%	?	-2%	-0.7&2.5
COc1ccc(C(=O)N2CC3(C)CC2CC(C)(C)C3)cc1OC (stereo not drawn)
  -12	-2.1	-1.8%	-72%[inhibitor]	-1%	-0.2
COC(=O)CN1C(=O)COc2ccc(S(=O)(=O)N3CCCCCC3)cc21
  0	-7.3	0.1%	?	-1%	-0.3
O=C(CCOc1ccccc1)Nc1ccccc1F
  7	2.6	0.5%	-9%	12%	1.1
O=C(NNc1nc(N2CCCC2)nc(N2CCCC2)n1)c1ccccc1
  -26	nt	0.9%	1%	10%	0.7
COc1ccc(N(CC(=O)N2CCOCC2)S(C)(=O)=O)cc1
  2	-1.8	-19%	-3%[15.4 µM]	-2%	0.5
CCC1(CC)NC(=S)N(Nc2ccccc2)C1=O
  -5	0.4	0.2%	-64%[inhibitor]	-1%	0.0
CC(C)(C)C(=O)NCC(c1ccc2c(c1)OCO2)N1CCOCC1 (stereo not drawn)
  -16	nt	1.8%	nt	nt	0.6
COCCNC(=O)c1cccc(C)c1[N+](=O)[O-]
  9	-2.1	-0.7%	2%	11%	-0.3

# The listing continues.
# Second line of a record – TRPML1 blocker	Menin MLL FP FL	ClpP mod	gsp ag	gsp antag	TRPML1 ag
CC(=O)c1cccc(NC(=O)NC2CC3CCCC(C2)N3CC(C)C)c1 (stereo not drawn)
  -1	2.0	-0.1%	15%	-5%	-0.2
CCC(Oc1ccccc1)C(=O)OCC(=O)Nc1c(C)nn(-c2ccccc2)c1C (stereo not drawn)
  14	nt	-0.1%	-145%[inhibitor]	nt	-0.5
CCCCN(C)CCNC(=O)c1cc(-c2ccc(Cl)s2)nc2ccccc12
  12	nt	4.2%	nt	nt	0.2
CCCc1nc(SCC(=O)Nc2nnc(CC)s2)c2c(=O)n(C)c(=O)n(C)c2n1
  10	-1.6	-4.9%	?	10%	-0.5
COc1ccc(C2=NS(=O)(=O)N(C)C(C(=O)NCc3ccc(F)cc3)=C2)cc1OC
  -4	-1.7	-3.6%	6%	-14%	-1.0
Cc1cccc(C)c1NS(=O)(=O)c1ccc2c(c1)C(=O)c1ccccc1C2=O
  3	-5.6	-2.8%	-10%	1%	-0.2
CCCCCC(=O)NC(=S)NC1C2CC3CC(C2)CC1C3 (stereo not drawn)
  ?	-3.5	nt	7%[15.4 µM]	7%	0.1
CCc1ccc(NC(=O)c2cnn(-c3c(C)cccc3C)c2C2CCN(C(=O)OC(C)(C)C)CC2)cc1
  0	nt	-1.7%	nt	nt	0.0
O=C(CSCc1cc(=O)[nH][nH]1)Nc1ccc(F)cc1
  -7	4.6	nt	16%[15.4 µM]	18%	-0.4
Cc1cc(C)c2c(=O)[nH]c(SCC(=O)c3ccc(C(C)C)cc3)nc2n1
  31	?	-2.5%	6%	-17%	-0.5
COC(=O)CC1Oc2ccc(F)cc2-n2cc(-c3ccc(C)cc3)nc21 (stereo not drawn)
  -2	nt	-20%	nt	nt	1.4
Cc1cccc(NC(=S)N(Cc2cccc(Br)c2)CC2CCC(C(=O)O)CC2)c1 (stereo not drawn)
  ?	1.2	-0.7%	-156%[inhibitor]	?	0.3
Cc1ccc(-c2nc(CSc3nc4ccccc4c(=O)n3CCO)cs2)cc1
  2	4.3	-20%	-22%	6%	-0.4
Cc1ccc(NC(=O)CSCc2cc(=O)n3ccsc3n2)cc1
  -3	0.6	-3.0%	-35%[inhibitor]	4%	-0.1
Cc1cc(C)c2c(CN3CCN(C/C=C/c4ccccc4)CC3)cc(=O)oc2c1
  8	5.1	-3.9%	-22%	-14%	2.9
O=C1CCC(C(=O)Nc2cccc(S(=O)(=O)Nc3ccccc3F)c2)=NN1
  1	nt	nt	4%	-9%	0.3
O=C(CNc1cccc(S(=O)(=O)N2CCOCC2)c1)Nc1cccc(Br)c1
  -13	nt	28µM*	-40%[inhibitor]	-16%	-0.7
O=C(Nc1ccccc1)C1=C[C@H](C2CC2)C[C@H](OCCCCO)O1
  28	-2.9	-0.4%	6%	2%	-0.9
CCC(C)(C)NC(=O)C(OC(=O)c1ccco1)c1ccccc1F (stereo not drawn)
  -4	1.2	0.1%	3%[15.4 µM]	10%	0.0
CCOC(=O)[C@H]1[C@H]2COc3cc(OC)ccc3[C@@H]2N2C(=O)N(c3cccc(Cl)c3)C(=O)[C@@]12C
  -9	4.0	-5.0%	nt	-8%	-0.7
